Screens: PubChem, Johns Hopkins Ion Channel Center
KCNQ2 pot = potentiators of rat KCNQ2 potassium channel | Potassium voltage-gated channel subfamily KQT member 2 (Rattus norvegicus), O88943 | CHO-K1 KCNQ2, FluxOR thallium flux fluorescence; hits give high values | B-score at 10 µM | hit rate 0.54% among 310,000;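 active = fluorescence ratio B-score at least 3 SD of library B-scores, with initial fluorescence B-score within 3 SD, cut at about 5.3 in these data; same plate scores as AID 2156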;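 note: B-score of peak minus minimum over baseline fluorescence ratio after K+ and Tl+ stimulus; positive B-score means potentiation of KCNQ2 with more thallium influx and brighter signal; only the inactives scoring about 0 or higher are listed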
Target sequence (O88943 whole entry, looked up): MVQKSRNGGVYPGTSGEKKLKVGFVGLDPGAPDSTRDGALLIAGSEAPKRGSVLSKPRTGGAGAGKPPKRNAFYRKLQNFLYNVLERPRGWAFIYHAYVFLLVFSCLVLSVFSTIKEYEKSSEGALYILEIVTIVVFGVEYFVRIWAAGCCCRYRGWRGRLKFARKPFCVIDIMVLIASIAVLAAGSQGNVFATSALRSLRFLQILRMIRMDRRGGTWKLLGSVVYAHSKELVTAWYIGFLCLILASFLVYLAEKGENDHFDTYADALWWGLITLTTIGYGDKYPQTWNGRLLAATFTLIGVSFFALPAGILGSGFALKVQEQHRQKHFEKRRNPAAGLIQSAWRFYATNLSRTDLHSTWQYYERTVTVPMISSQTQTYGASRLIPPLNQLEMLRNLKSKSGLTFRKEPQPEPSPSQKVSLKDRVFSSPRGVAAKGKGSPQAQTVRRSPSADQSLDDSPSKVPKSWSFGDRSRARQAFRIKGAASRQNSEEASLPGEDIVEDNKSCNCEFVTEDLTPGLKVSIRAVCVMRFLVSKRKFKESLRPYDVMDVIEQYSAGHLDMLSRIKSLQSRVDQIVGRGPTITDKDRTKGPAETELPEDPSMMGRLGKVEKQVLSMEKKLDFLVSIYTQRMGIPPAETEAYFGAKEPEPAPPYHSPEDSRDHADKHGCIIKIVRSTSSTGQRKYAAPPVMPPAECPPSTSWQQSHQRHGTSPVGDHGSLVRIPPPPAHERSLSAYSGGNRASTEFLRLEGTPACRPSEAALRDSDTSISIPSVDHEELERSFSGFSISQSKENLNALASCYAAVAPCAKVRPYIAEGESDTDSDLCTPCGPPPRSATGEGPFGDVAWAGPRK
KCNQ2 pot baseline = recorded beside KCNQ2 pot, whose call it bears; B-score; compound at 10 µM; measured here: initial fluorescence intensity artifact check;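 brightness before thallium and not channel activity; 0 = typical well and far values either way flag optical interference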
Numbers without * were called inactive.

SMILES | KCNQ2 pot | KCNQ2 pot baseline
CCC(C)N(C(=O)c1csnn1)C(C(=O)NCc1ccc(F)cc1)c1ccccc1 (centres undefined) | 1.4 | 1
CS(=O)(=O)N1CCCC(C(=O)c2cccc(Cl)c2)C1 (centres undefined) | 1.2 | 0
Cc1ccc(C(=O)Oc2coc(CSc3nnc(NC(=O)C4CC4)s3)cc2=O)cc1 | 0.6 | -0.95
CCCCn1c(SCC(=O)Nc2nccs2)nc2ccccc2c1=O | 0.06 | -0.02
COc1ccc(NC(=O)C2(c3ccc(NC(=O)c4ccc(OC)cc4)cc3)CCCC2)cc1 | 0.69 | 1.9
COc1ccc2nc(-n3c(O)c(C4=c5ccccc5=NC4=O)[nH]c3=S)sc2c1 | 1 | -0.64
O=C(CC1NCCc2ccccc21)Nc1ccccc1 (centres undefined) | 0.38 | 1.2
COC(=O)c1sccc1Oc1ccc(F)cc1[N+](=O)[O-] | 0.37 | -1.2
Cc1ccc(CNc2ccc(O)cc2)cc1 | 0.06 | -1.5
CN1CCN(c2ccc([N+](=O)[O-])cc2NC(=O)c2cccs2)CC1 | 0.15 | -1.7
Cn1ncc(Br)c1C(=O)NCc1cccs1 | 1.2 | 1.8
COc1ccc(N2C(=NC(=O)C(C)Oc3ccccc3)SC3CS(=O)(=O)CC32)cc1 (centres undefined) | 0.98 | 0.68
CC(=O)/C(=N/Nc1ccccc1Cl)Sc1nnc(C(O)c2ccccc2)n1-c1ccccc1 (centres undefined) | 0.01 | -0.3
O[C@@H](c1cc(C(F)(F)F)nc2c(C(F)(F)F)cccc12)[C@H]1CCCCN1 | 0.92 | -0.74
COc1ccc(/C=C2/C(=O)N(c3cccc(F)c3)N=C2C)c(OC)c1 | 1.6 | 0.06
C/C(=N\Nc1nc(Nc2ccccc2)nc(N2CCOCC2)n1)c1cccs1 | 0.81 | 0.2
Cc1ccnc(NS(=O)(=O)c2cccs2)c1 | 1.5 | -1.5
O=C1CC(N2CCN(c3ccc(O)cc3)CC2)C(=O)N1c1ccc2c(c1)OCO2 (centres undefined) | 0.73 | 0.01
O=S(=O)(O)c1ccc(N=NNc2ccc(Br)cc2)cc1 | 2 | -0.05
COc1cccc(CNC(=O)N2CCN(c3ccccc3)CC2)c1 | 0.61 | 0.14

The final 3 entries of the section before lead into the next.
SMILES | KCNQ2 pot | KCNQ2 pot baseline
O=C1CC(N2CCN(c3ccc(O)cc3)CC2)C(=O)N1c1ccc2c(c1)OCO2 (centres undefined) | 0.73 | 0.01
O=S(=O)(O)c1ccc(N=NNc2ccc(Br)cc2)cc1 | 2 | -0.05
COc1cccc(CNC(=O)N2CCN(c3ccccc3)CC2)c1 | 0.61 | 0.14
Cc1cccc(N2CCN(CCCNC(=O)c3ccc(NC(=O)C4=CSCCO4)cc3)CC2C)c1 (centres undefined) | 0.78 | 1.2
O=C(/C=C/c1c(F)cccc1Cl)Nc1ccncc1 | 0.98 | 1.9
Cc1cccc(NC(=O)c2nc[nH]c2C(=O)N[C@@H](CC(C)C)C(=O)OC(C)(C)C)c1 | 0.87 | 1.1
COC(=O)C(Cc1ccccc1)NS(=O)(=O)c1ccc(F)cc1Br (centres undefined) | 1.6 | 0.86
O=C(O)CC1(CC(=O)Nc2ccc(F)c(Cl)c2)CCCCC1 | 1.8 | 1.2
Cc1ccccc1C(=O)Nc1nncs1 | 0.02 | -0.03
CC(CCn1cccn1)NC(=O)c1cc(COc2ccc(F)cc2Cl)on1 (centres undefined) | 0.02 | -1.7
Cc1c(C(=O)N2CCCCCC2)oc2ccccc12 | 0.56 | -1.4
Cc1ccc([N+](=O)[O-])cc1NC(=O)CSc1nncc2ccccc12 | 0.4 | -0.4
Cc1c(C(=O)C(=O)N2CCN(C)CC2)c2ccccc2n1C | 0.46 | -1
CN(C)S(=O)(=O)c1ccc(NC=C(C#N)C#N)cc1 | 0.75 | 1.4
Cc1cccc(NC(=O)C2CCCN2C(=O)OCC(C)C)c1 (centres undefined) | 1.6 | 0.88
Cc1nn2c(C)c(C(=O)Nc3ccccc3)cnc2c1C#N | 1.3 | 0.91
CCOC(=O)C1CCN(Cc2ccc(OCc3ccccc3)c(OC)c2)CC1 | 0.65 | -1.1
CC(CCc1ccccc1)NC(=O)C1CCN(S(=O)(=O)N2CCCCC2)CC1 (centres undefined) | 0.82 | 1.5
N=c1oc2ccc(Cl)cc2cc1C(=O)Nc1ccc(F)cc1 | 0.04 | -0.74
CC(=O)Oc1ccc(-c2ccc(C(=O)NCCc3ccc(S(N)(=O)=O)cc3)cc2)cc1 | 0.45 | 0.99
COc1cccc2c1OC[C@@H](CO)[C@H]2N(C)C(=O)Nc1ccc(Cl)cc1Cl | 1.9 | 0.23
Cc1ccc(NC(=O)CSc2nc3c(c(=O)[nH]2)CCCC3)cc1C | 1.7 | 0.65
COc1ccccc1N(CC(=O)NCc1ccccc1)S(C)(=O)=O | 0.77 | -0.01
Cn1nccc1NC(=O)Nc1cccc(Cl)c1Cl | 0.44 | -0.35
COCCn1c(SCC(=O)N2CC(=O)Nc3ccccc32)nc2ccccc2c1=O | 0.09 | -1.4
NC(=O)c1cccnc1Oc1ccccc1 | 2 | 0.53
CC(=O)N1CCCc2cc(S(=O)(=O)Nc3ccc(C)cc3C)ccc21 | 0.08 | -1.1
CN(CCc1ccccn1)C(=O)c1cccnc1Oc1ccccc1 | 0.11 | 0.04
C=CCN1C(=O)c2ccc(C(=O)N(CC)CC(=O)Nc3ccc(OC)cc3)cc2C1=O | 0.14 | 1.8
COc1cc(C(=O)N2CCN(S(=O)(=O)c3ccc(C)cc3)CC2)ccc1OCc1c(C)noc1C | 0.03 | -3.5
Cc1[nH]nc2c1/C(=N\O)CCC2 | 0.26 | -1.5
CN1C(=O)C(C)(C)c2cc(S(=O)(=O)NCC(=O)NCc3ccccc3)ccc21 | 1.4 | -0.27
CCc1ccc(C(=O)Nc2ccc3nc(C)ccc3c2)cc1 | 0.88 | -0.55
CCc1ccc(C(=O)Nc2ccc(C)c(NS(C)(=O)=O)c2)cc1 | 1.4 | 0.66
CN(Cc1cnccn1)Cc1ccccc1OCC(O)CN1CCc2ccccc2C1 (centres undefined) | 0.98 | -0.35
Cc1ccc(NC(=S)NC(=O)CC2CC(C)(C)OC2=O)cc1 (centres undefined) | 1.5 | -1.8
CCCOc1ccc(N2C(=O)CC(N3CCOCC3)C2=O)cc1 (centres undefined) | 1.2 | -0.14
O=C(NNc1ccc([N+](=O)[O-])cc1[N+](=O)[O-])c1ccco1 | 1.7 | -0.45
Cc1cc(O)c(Sc2ccc(Cl)cc2)c(=O)[nH]1 | 0.95 | -2.7
Cc1ccc(C)n1NC(=O)c1cccs1 | 0.15 | -0.21
CCOC(=O)C1=C(C)NC(SCC(N)=O)=C(C#N)C1c1ccncc1 (centres undefined) | 0.36 | -0.38
N=C1CCCN1CC(=O)c1ccc(Cl)cc1 | 0.61 | 0.16
COc1cc(C)c(C)cc1S(=O)(=O)N1CCN(Cc2ccccc2)CC1 | 0.03 | -1.1

Three records picked at random from those above, as already listed:
SMILES | KCNQ2 pot | KCNQ2 pot baseline
CN(CCc1ccccn1)C(=O)c1cccnc1Oc1ccccc1 | 0.11 | 0.04
O=C(NNc1ccc([N+](=O)[O-])cc1[N+](=O)[O-])c1ccco1 | 1.7 | -0.45
Cc1cc(O)c(Sc2ccc(Cl)cc2)c(=O)[nH]1 | 0.95 | -2.7

(next part)
SMILES | KCNQ2 pot | KCNQ2 pot baseline
COc1ccc(CCN(C)C(=S)NC(=O)c2ccc(F)cc2Cl)cc1OC | 0.02 | 0.08
Cc1cccc(NC(=O)CSc2nc(=O)n(CCCN3CCOCC3)c3c2CCCC3)c1 | 0.78 | -0.54
CCOC(=O)c1nc(C)nc(Sc2n[nH]c(-c3ccccc3)n2)c1C | 1.4 | 0.24
Cc1cccc(NC(=O)CSc2nc(NS(=O)(=O)c3ccccc3)cc(=O)[nH]2)c1 | 0.33 | 3
O=C(O)c1cccc(NC(=O)c2cccc(NC(=O)C3CCCO3)c2)c1 (centres undefined) | 0.16 | -0.46
Nc1nc(C(F)(F)F)cc(=O)n1N | 1.7 | -0.55
COc1ccccc1CNC(=O)c1ccccc1OC | 0.98 | -1
COc1cccc(/C=N/Nc2nnc3c(n2)[nH]c2ccccc23)c1OC | 0.34 | -0.27
CCOC(=O)N(C)S(=O)(=O)c1ccccc1[N+](=O)[O-] | 2.1 | 0.81
Cc1cc2nc(C(C)(C)C)cc(N)n2n1 | 0.86 | 0.4
O=S(=O)(NCCc1ccccc1)c1ccc(Br)cc1 | 0.41 | -0.31
CN(C)CCCNc1oc(-c2ccccc2Cl)nc1S(=O)(=O)c1ccc(F)cc1 | 0.1 | -3.4
Clc1ccc(-c2nnc(CNC3CC3)o2)cc1 | 0.86 | -0.14
CC(=O)Nc1ccc2c(c1)CN(c1cc(C)ccc1C)CO2 | 0.5 | -0.94
CCOC(=O)CNC(=O)C(Cc1ccccc1)NS(=O)(=O)c1ccc2c(c1)CCC(=O)N2 (centres undefined) | 0.97 | 0.79
Cc1cc(C)c(S(=O)(=O)Cc2ccccc2)c(Cl)n1 | 0.29 | -1.1
O=C(Nc1ccc(Cl)cc1)N1CCCC(Cn2cccc2)C1 (centres undefined) | 1.1 | -0.31
Cc1csc2nc(CNS(=O)(=O)N(C)C)cn12 | 0.5 | 0.01
Cc1cc(NC(=O)CSc2nnc(-c3c[nH]c4ccccc34)n2-c2ccc(Cl)cc2)no1 | 0.5 | -0.41
O=C(CSc1nnc(CCCN2C(=O)c3cccc4cccc(c34)C2=O)n1-c1ccccc1)N1CCCCC1 | 0.07 | 0.1
O=C(Nc1ccc2c(c1)OCO2)c1cccc(S(=O)(=O)N2CCCC2)c1 | 1.1 | -0.44
CCCC(=O)Nc1ccc2c(c1)nc(CN1CCCC1)n2C | 0.12 | -0.21
O=C(Nc1ccc2c(c1)nc1n2CCOC1)c1ccccc1 | 0.68 | 0.27
O=C(COc1ccc(N2C(=O)c3ccccc3C2=O)cc1)c1ccccc1 | 0.26 | 0.4
Cc1ccc(C(=O)NNC(=O)CCC(=O)Nc2cccc(Cl)c2C)cc1 | 0.24 | 2.1
O=C(NCc1ccco1)C1CCCN(S(=O)(=O)c2cccc3nonc23)C1 (centres undefined) | 0.6 | -0.03
CC(=Nc1ccc(Br)cc1)c1sc2ccccc2c1O | 0.01 | -0.45
C#CCOCCOCCOCCNc1nc(N2CCN(C(=O)Cn3cc(CC(C)O)nn3)CC2)nc(N2CCN(C(=O)[C@H](C)n3cc(CCCN=C(N)N)nn3)CC2)n1 (some centres undefined) | 0.8 | 0.67
O=C(O)CSc1nnc(-c2ccc(S(=O)(=O)N3CCCC3)cc2)n1Cc1ccco1 | 0.32 | -0.88
Cc1cccc(-n2c(C)cc(/C=C3/C(=N)N4C(c5ccccc5)=CSC4=NC3=O)c2C)c1 | 0.38 | 0.5
Cc1occc1C(=O)N1CCCC(Nc2ccc(F)cc2)C1 (centres undefined) | 1.2 | -2
CN(C(=S)NC(=O)c1ccccc1)C1CCCCC1 | 3.9 | 0.29
O=C(NN1CCOCC1)c1ccc(Cl)cc1 | 0.33 | 1.8
Cc1ccccc1OCC(=O)NCCCNC(=O)c1ccco1 | 0.69 | 1
O=C(CSCc1ccc(Cl)cc1)Nc1ccc(-c2nnc(-c3ccccc3)o2)cc1 | 0.4 | -0.67
CC1CCN(S(=O)(=O)CCNC(=O)c2ccc3c(c2)OCO3)CC1 | 1 | 1.2
CCCNC(=O)C1CCN(S(=O)(=O)c2ccc3[nH]c(=O)ccc3c2)CC1 | 0.75 | -1.5
Cn1c(=O)cc(N2CCOCC2)[nH]c1=O | 1.8 | 1.9
COc1ccc(N2C(=O)C3CCCN3C2c2ccccc2Cl)cc1 (centres undefined) | 0.7 | 0.74
Cc1ccc(CNC(=O)CCc2nnc(Cc3ccc(-c4ccccc4)cc3)o2)o1 | 1.4 | -0.84

Part of the list above, with tabs:
smiles	KCNQ2 pot	KCNQ2 pot baseline
Cc1nn2c(C)c(C(=O)Nc3ccccc3)cnc2c1C#N	1.3	0.91
CCOC(=O)C1CCN(Cc2ccc(OCc3ccccc3)c(OC)c2)CC1	0.65	-1.1
CC(CCc1ccccc1)NC(=O)C1CCN(S(=O)(=O)N2CCCCC2)CC1 (centres undefined)	0.82	1.5
N=c1oc2ccc(Cl)cc2cc1C(=O)Nc1ccc(F)cc1	0.04	-0.74

(more compounds)
SMILES | KCNQ2 pot | KCNQ2 pot baseline
O=C(Nc1cc(-c2nc3ncccc3o2)ccc1Cl)c1ccc([N+](=O)[O-])o1 | 1.7 | 0.79
O=C(Nc1nc(-c2cccs2)c(-c2ccccc2)s1)c1ccco1 | 0.42 | 0.92
Cc1cc(C(=O)N2CCN(S(C)(=O)=O)CC2)sc1-c1ccccc1 | 1.6 | 0.49
O=C(COc1ccc2c3c(c(=O)oc2c1)CCCC3)N1CCN(c2ccc(F)cc2)CC1 | 0.77 | 1.6
Cc1ccnc(SCC(N)=O)n1 | 0.02 | -0.63
Cc1cccc(OCCCC(=O)NNC(=O)CCN2CCN(c3ccccc3)CC2)c1 | 1.7 | -0.78
N#Cc1ccc(CNC(=O)N2CCOCC2)cc1 | 0.27 | -0.24
Cc1[nH]n(C(N)=S)c(=O)c1N=Nc1ccc(Cl)cc1Cl | 4.6 | -1.3
O=C(NCc1ccncc1)C(=O)N/N=C/c1ccccc1OCc1ccccc1 | 1.7 | -0.04
COc1ccccc1CN1CC(C(=O)NCc2cc(C)on2)CCC1=O (centres undefined) | 1.1 | 1.7
CCOC(=O)COc1cccc2c(=O)n(CC(=O)N3CCCCC3)ccc12 | 0.68 | -0.52

These rows are one share of the data; the hit share may differ from the screen's.
